BJeLR viability: kills HRASV12-expressing BJeLR cells; inhibition, % (no concentration beside the values); 0.17% of 300,000 active; BJeLR (HRASV12) viability, CellTiter-Glo ATP luminescence, 48 h; reference of the scale not given here;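 active means replicate mean above 50%; inconclusive means above 50% but judged a plate artefact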;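 further: 50 nL library stock added to about 25 µL; numbers are from one replicate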
PrP UTR inh: suppresses PrP 5' UTR mRNA reporter expression; AID 488862; cell-based PrP 5' UTR mRNA reporter, plate reader; 0.35% of 340,000 active; inhibition, % (test concentration not listed);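 active means every replicate at 50% or more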;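 further: 0 = median of the neutral control wells; tested in H4 reporter cells; numbers are from one replicate; inactives centre near -14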
Sa RN4220 lethal: kills Staphylococcus aureus RN4220 | S. aureus RN4220 growth, OD600, 16 h | inhibition, % (concentration not given with the values) | 0.33% of 330,000 active;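 active means z-score of -3 or lower and OD600 up to 0.18 on both plates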;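 further: plate controls were untreated cells for no effect and reference antibiotic for full effect; stock transfer was 100 nL into about 80 µL; one replicate is shown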
ugtP null kill: growth inhibition of S. aureus ugtP deletion strain; 0.54% of 330,000 active; S. aureus RN4220 ugtP deletion, OD600 growth, 16 h; some inactives read as strong as hits; AID 1259309; growth inhibition, % (no concentration beside the values);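 active means z-score under -3 and OD600 up to 0.15 on both plates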;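 further: plate controls were untreated wells for no effect and antibiotic for full effect; wells of about 80 µL received 100 nL stock; the first replicate is given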
Bead autofluor: flagged as autofluorescent in microsphere protease counterscreen; compound autofluorescence counterscreen, microsphere flow cytometry; hits give high values; fluorescence intensity (concentration not given with the values); 3.1% of 360,000 active;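 active means at least 3 SD above the mean of all compounds, about 16000 in these data; inconclusive means too few beads counted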;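 further: 100 nL of 1 mM stock went into each well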
Mtb hypoxia inh: reduces hypoxia-regulated biosensor signal in M. tuberculosis; fluorescence inhibition, % (test concentration not listed); M. tuberculosis hypoxia-regulated fluorescent reporter, fluorescence; 0.1% of 300,000 active;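 active means 35 to 45% if threefold the growth effect, above 45% if 1.5-fold the growth effect; inactive means the rest, general growth blockers included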;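 further: wells of about 50 µL received 100 nL stock; 0% = vehicle wells and 100% = reference inhibitor wells; whole bacteria with a GFP reporter of the hypoxia response; strong numbers were not always called active; many hits fall short of the cut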
Mtb hypoxia inh growth: second read-out of Mtb hypoxia inh, no call of its own (marks repeat the call); growth inhibition, %; measured here: M. tuberculosis growth (absorbance);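 0% = vehicle and 100% = reference antibiotic; read after six days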
Starred values were filed as active, the others as inactive; ? = inconclusive; / = no result given.

SMILES	BJeLR viability	PrP UTR inh	Sa RN4220 lethal	ugtP null kill	Bead autofluor	Mtb hypoxia inh	Mtb hypoxia inh growth
O=C(CSc1nnnn1-c1ccccc1)NCC1(N2CCOCC2)CCCCC1	/	-23	4.1	2	3564	8	5
Cc1ccccc1Cn1nc(C)c(NC(=O)c2sc3ccccc3c2Cl)c1C	-12	-18	-1.9	-8	3687	4	14
CN(C)c1nc(N)nc(CSc2n[nH]c(-c3ccccc3)n2)n1	8	-32	1.1	-2	9633	4	4
CCCCn1c(N)c(N(Cc2ccccc2OC)C(=O)c2cc(CC)c(C)s2)c(=O)[nH]c1=O	/	4	0.0	5	3316	5	0
O=C(NCc1cccnc1)C12CC3CC(CC(C3)C1)C2	6	/	1.7	-3	3096	3	2
Cn1c(SCC(=O)NN=C/C=C\c2ccco2)nc2ccccc21	/	/	4.5	-3	/	-1	0
CCn1nc(NC(=O)C2CCCO2)c2cc3cccc(C)c3nc21 (configuration not stated)	-2	/	2.9	5	3479	-5	11
CC(=O)Nc1ccc(C(=O)CSc2nnnn2C(C)C)cc1	-14	-25	3.7	14	3369	/	/
Cc1ccc(SCc2[nH]nc3c2C(c2ccc(C)o2)C(C#N)=C(N)O3)cc1 (configuration not stated)	/	-18	20	-32	19530*	2	6
O=C(c1ccccc1Oc1ccccc1)N1CCN(c2ccc(F)cc2)CC1	4	-9	3.1	7	4234	6	11
COC(=O)c1sc(SC)c(S(=O)(=O)C(C)C)c1NN=C(C#N)C(=O)c1ccccc1	/	/	0.4	2	/	11	6
CC(=NNC(=O)c1cccc(S(=O)(=O)N2CCCC2)c1)c1ccc(C)cc1	/	/	-2.6	-4	/	-6	-8
CCOc1ccc(/C=C/c2c([N+](=O)[O-])c(=O)n(C)c(=O)n2C)cc1	2	-9	1.6	8	2213	9	6
COCCCNC(=O)CCn1c(=O)c2ccccc2n(CC(=O)Nc2cc(Cl)ccc2C)c1=O	4	-15	-2.6	0	4521	/	/
COc1cccc(CNC(=O)COC(=O)C23CC4CC(CC(Cl)(C4)C2)C3)c1	/	-11	4.4	-6	5254	10	5
CCN(CC)CCNC(=O)Cn1cnc2sc(C)c(S(=O)(=O)N3CCN(c4ccccc4OC)CC3)c2c1=O	-14	-24	1.8	10	3562	9	3
CC(C)(C)CN1C(=O)C(=O)NC[C@H]1Cc1cccc2ccccc12	4	-6	/	/	3449	/	/
Cn1cc([N+](=O)[O-])c(C(=O)Nc2ccc(-c3nc4ccccc4o3)cc2)n1	8	-17	/	/	3482	/	/
C=CCn1c(-c2cccc(S(=O)(=O)N3CCOCC3)c2)n[nH]c1=S	/	-11	2.7	6	5930	6	-3
NC(=O)c1ccc(NC(=O)c2ccc3c(c2)OCO3)cc1	3	-116	2.7	12	7339	7	2
O=C(NCCN1CCOCC1)c1noc2c1CCc1ccccc1-2	-5	-38	-1.7	11	23180*	4	-3
CC(C)(C)OC(=O)N1CCC[C@@H]1C(=O)N1CCC(C(=O)O)CC1	6	-10	/	/	2294	/	/
CCOc1cc(/C=C(\C#N)C(=O)NCC2CCCO2)ccc1O (configuration not stated)	-1	-17	5.2	5	8987	7	7
CC(C)c1ccccc1OCCNC(=S)NC(=O)c1cccnc1	-3	-10	-17	0	5047	17	14
COc1ccc(Nc2nc3ccccc3nc2NS(=O)(=O)c2cccs2)cc1	7	-28	33	14	6450	8	8
CC(=O)N1CCN(c2ccc(NC(=O)c3ccccc3Cl)cc2)CC1	-2	-13	/	/	3109	/	/
O=C(c1cccc(Cl)c1)N(Cc1cccs1)C1CCS(=O)(=O)C1 (configuration not stated)	-10	5	1.3	5	4065	-4	3
O=C(CN1C(=O)C2CC=CCC2C1=O)NC1CCCc2ccccc21 (configuration not stated)	-6	-5	0.8	-2	8759	5	6
Cc1cc2nc(SC(C)C(=O)O)[nH]c2cc1C (configuration not stated)	0	-12	6.6	5	9266	3	14
CC(=O)Nc1ccc(NC(=O)c2ccccc2Sc2ccc([N+](=O)[O-])cc2Cl)cc1	3	-7	4.1	10	2420	-2	-2
O=C(CCC1CCCCC1)Nc1nncs1	7	-11	2.2	10	4013	18	10
Cc1cccc(OCC(=O)NN=Cc2sc(=O)n(Cc3cccc(C(=O)O)c3)c2Cl)c1	/	/	1.0	-6	/	1	-2
O=[N+]([O-])c1cccc(C=NNc2nc(C(Cl)(Cl)Cl)nc3ccccc23)c1	/	/	-2.5	-19	/	-8	1
Cc1ccc(C)c(NC(=O)CSc2nnc(CNC(=O)c3ccco3)n2C)c1	0	-19	-3.4	4	4256	5	-1
N#CCC(=O)N1CCn2c1nc1ccccc12	5	-13	0.2	5	2722	/	/
CCCn1c(SC(C)C(=O)NCC2CCCO2)nc2sc(CC)cc2c1=O (configuration not stated)	-3	-4	2.9	10	4712	-2	-1
NS(=O)(=O)c1ccc(NC(=O)CN2C(=O)CCC2=O)cc1	-8	-23	1.5	9	4464	-4	2
C#CCOCCOCCOCCNc1nc(N2CCN(C(=O)Cn3cc(CCO)nn3)CC2)nc(N2CCN(C(=O)[C@H](C(C)C)n3cc(CCO)nn3)CC2)n1	-2	-15	/	/	3539	/	/
NC(=S)NN=CCn1cc([N+](=O)[O-])c(=O)[nH]c1=O	/	-10	4.6	-1	3482	18	12
OCCC1CN(Cc2ccc(F)cc2)CCN1CCc1ccccc1 (configuration not stated)	-1	-13	-1.8	4	4152	9	9
CCOc1c(Br)cc(CNCc2cccs2)cc1OC	1	-8	6.0	15	2606	2	-1
CCc1ccc(NC(=S)Nn2cnnc2)cc1	2	-22	7.2	12	4418	-2	4
O=C1C2C3CCC(C3)C2C(=O)N1CNc1ccccc1 (configuration not stated)	7	-30	3.4	2	2156	-7	-10
COc1cc2[nH]c(=S)n(NC(=O)CC(C)C)c(=O)c2cc1OC	2	-8	3.6	2	24467*	10	4
CCO[C@@H]1OC(C(=O)N2CCCCCCC2)=C[C@H](c2ccc(C(F)(F)F)cc2)[C@H]1CCCO	-4	-3	/	/	2922	/	/
CCOC(=O)N1CCN(C(=O)CNC(=O)c2ccc(Br)cc2)CC1	-9	-17	1.1	3	?	11	1
CC(=O)NC(Cc1ccccc1)C(C)=O (configuration not stated)	7	-20	11	5	4314	1	-9
CCOC(=O)C1CCCN(CC(=O)Nc2cccc(C(C)=O)c2)C1 (configuration not stated)	5	-27	3.1	-6	3409	10	5
c1ccc(CCc2cn(C[C@H]3CC[C@@H]([C@@H]4CC[C@H](Cn5cc(CCc6ccccc6)nn5)O4)O3)nn2)cc1	2	2	/	/	2966	/	/
Fc1cccc(CCN2CCNCC2CC2CCCCC2)c1 (configuration not stated)	/	/	-1.4	3	/	19	11

Remaining list, next part:
SMILES	BJeLR viability	PrP UTR inh	Sa RN4220 lethal	ugtP null kill	Bead autofluor	Mtb hypoxia inh	Mtb hypoxia inh growth
c1ccc(C2[C@H]3CN(CC4CCCCC4)[C@H](c4ccccc4)C34CC2(c2cccnc2)C4)cc1 (some centres not stated)	-3	-16	/	/	5768	/	/
Clc1ccc(NC2=NCCC2)cc1Cl	-1	-7	6.9	6	3241	2	2
O=C(CNC(=O)c1ccccc1)NCC(=O)OCC(=O)c1ccccc1	-6	-5	7.3	3	5172	5	1
CCOc1ccc(-n2c(COc3ccccc3)nnc2SCC(N)=O)cc1	-3	-18	8.1	-7	4263	15	9
CC(=O)N1CCCc2cc(S(=O)(=O)N3CCC(C)CC3)ccc21	-1	-11	4.4	-1	8958	5	10
CCOc1ccc(S(=O)(=O)n2cc(F)c(=O)[nH]c2=O)cc1[N+](=O)[O-]	0	-29	18	32	6241	6	6
CCC(C)(C)NC(=O)C1CCN(S(=O)(=O)c2cccs2)CC1	-2	-39	2.4	8	4553	0	-6
Cc1ccc(SCCC(=O)NNC(=O)c2ccccc2F)cc1	/	-23	2.1	5	3890	-1	5
Cc1ccc(SCc2cc(=O)[nH]c(/N=C(\N)Nc3ccc(C)c(C)c3)n2)cc1	3	-22	3.4	-8	25207*	3	2
CCCCN(C(=O)/C=C/c1ccc(OC)cc1)C1CCS(=O)(=O)C1 (configuration not stated)	2	-24	7.3	14	/	1	-4
O=C(CNC(=O)c1ccco1)Nc1cccc(Cl)c1	0	-29	0.9	3	3870	2	5
CCc1ccc(OCC(=O)NC(=S)Nc2ccc(C(C)=O)cc2)c(Br)c1	-20	-30	8.5	10	7276	/	/
COC(=O)N1CC=CC1(C)C(=O)NCc1cc(F)cc(C(F)(F)F)c1 (configuration not stated)	0	-8	3.7	-10	3539	9	13
O=C(c1cccnc1)N1CCN(S(=O)(=O)c2ccc3ccccc3c2)CC1	-3	-16	5.4	13	16645*	-3	3
Cc1ccc(N)cc1CN1CCCC1=O	-2	-4	-4.7	-3	2388	/	/
CCOC(=O)CN1C(=O)N(c2ccccc2OC)S(=O)(=O)c2ccccc21	-3	-22	5.7	-1	4031	1	5
c1ccc(CNC2CC3CCC2C3)cc1 (configuration not stated)	/	-18	3.7	3	3889	8	5
O=S(=O)(NCc1ccccc1)NCc1ccccc1	7	-13	-2.8	-3	2876	4	3
CSCCC(NC(=O)c1ccc(Cl)cc1Cl)C(=O)NCc1ccccn1 (configuration not stated)	8	-2	0.5	-1	6726	-2	2
NC(=O)CSc1nnc(-c2ccccn2)n1Cc1ccco1	0	-16	3.0	4	3486	-8	4
S=C(c1ccccc1)N1CCSCC1	-11	-10	7.9	11	3878	6	9
Cc1ccc(NC(=O)C2CC(=O)N(c3ccccc3Cl)C2)cc1S(=O)(=O)N1CCOCC1 (configuration not stated)	/	23	0.8	-6	3107	0	5
CC(C)(C)c1ccc(S(=O)(=O)N2CCC(N3CCCCC3)CC2)cc1	-11	-5	1.3	8	6656	12	-1
O=C(Nc1ccccc1Cl)C1C(c2ccccc2)C1(Cl)Cl (configuration not stated)	8	20	0.7	0	/	-6	-4
O=c1oc2ccccc2n1Cc1cccc(C(F)(F)F)c1	-5	-13	2.8	4	4082	3	14
CC1Sc2ccc(S(=O)(=O)N3CCC(C(N)=O)CC3)cc2NC1=O (configuration not stated)	5	17	-2.4	-7	5505	-3	12
O=C(OCC(=O)N1CCN(C(=O)c2ccco2)CC1)C1=COCCO1	4	5	6.6	11	8720	7	-2
CCOC(=O)c1c(SCc2ccccc2)n[nH]c1N	-12	-37	2.8	0	3821	-6	-10
CC(=O)c1c(C(C)=O)c(C)n(-c2ccc(N)cc2)c1C	1	-16	-0.3	9	3258	/	/
O=C1Nc2ccccc2/C1=N/N=C/c1cccc(O)c1	5	-12	/	/	4489	/	/
CCOC(=O)NCCOC(=O)Nc1ccc(Cl)cc1	-11	-18	5.0	4	2465	10	-10
COC(=O)c1ccc(COC(=O)c2cccn2C)o1	-4	-31	4.3	3	5955	10	2
COCCCNC(=O)C1CCC(CNS(=O)(=O)c2ccc3c(c2)N(C(C)=O)CCO3)CC1 (configuration not stated)	-1	-10	7.6	12	4757	3	-10
O=Cc1c[nH]c2ccc(C(=O)c3ccccc3)cc12	8	-10	1.5	-4	3501	-4	3
CC1CCCN(CCCOc2ccc(Cl)cc2Br)C1 (configuration not stated)	-12	-8	-0.7	1	2049	-2	11
